High-throughput results from PubChem BioAssay.
Hedgehog – Drosophila hedgehog isoform A inhibitors, primary screen, biochemical, plate reader, single concentration (AID 588832) | Biochemical plate reader assay, Hedgehog inhibition; hits give high values | 8,000 tested, under 10 active | inhibition, % at 30.3 µM; in the data active = inhibition from about 57%;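 also: 0% = neutral control wells and 100% = positive control wells; cholesterol-driven self-cleavage of fly hedgehog protein by fluorescence polarization; read one hour after cholesterol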
* = called active by the depositor. Only part of the results is shown. The share of hits here may be higher or lower than overall.

SMILES	Hedgehog
CC(=O)O[C@]1(C(C)=O)CC[C@H]2[C@@H]3C=C(Cl)C4=CC(=O)[C@@H]5C[C@@H]5[C@]4(C)[C@H]3CC[C@@]21C	1.8
Cc1coc2c1C(=O)C(=O)c1c-2ccc2c1CCCC2(C)C	1.8
CCCCCCCCO	3.6
CC1(C)O[C@H]2CC(=O)OCC23[C@H]2CC[C@@]4(C)[C@H](c5ccoc5)OC(=O)[C@H]5O[C@]54[C@]2(C)C(=O)C[C@@H]13 (some centres undefined)	5.4

Nothing new here: an excerpt of the list.
SMILES	Hedgehog
CC(=O)O[C@]1(C(C)=O)CC[C@H]2[C@@H]3C=C(Cl)C4=CC(=O)[C@@H]5C[C@@H]5[C@]4(C)[C@H]3CC[C@@]21C	1.8
Cc1coc2c1C(=O)C(=O)c1c-2ccc2c1CCCC2(C)C	1.8
